Screening data deposited in PubChem by National Center for Advancing Translational Sciences (NCATS).
Vaccinia mCherry: inhibitors of vaccinia virus infection (mCherry reporter signal) | Vaccinia virus mCherry reporter infection, fluorescence; about a quarter of the inactives have no number | Potency, µM (series often up to 36.5 µM), for the others: at the top dose activity change, negative = inhibition, usual class: inhibitors | 0.63% of 310,000 active; active = well fitted inhibition curve with a large enough effect; inconclusive = small, poorly fitted or top-dose-only effect; inactive = no such curve, though single readings can be large or run the other way; tested in A549 cells; further: nearly all actives have a fitted effect of over 35% in size; inactives centre near -10
Vaccinia Venus: vaccinia inhibition (Venus reporter); 0.46% of 330,000 active; Potency, µM (top dose mostly 36.5 µM), for inactives: at the top dose activity change, negative = inhibition, actives largely listed as inhibitors; AID 720580; Vaccinia virus Venus reporter expression, fluorescence; active means well fitted inhibition curve with a large enough effect; inconclusive means small, poorly fitted or top-dose-only effect; inactive means no such curve, though single readings can be large or run the other way; tested in A549 cells; further: nearly all actives have a fitted effect of over 30% in size; inactives centre near -10
Numbers without * were called inactive; i = inactive; ? = inconclusive; . = no result given; [ ] = remark or other dose. On the % scale 0 is the no-effect control and ±100 the full control effect; potency means the concentration at half of the fitted maximal effect.

Under each structure – Vaccinia mCherry, Vaccinia Venus
> Cc1noc(C)c1COC(=O)c1cc2c(C)nn(-c3ccc(F)cc3)c2s1
    -10%, -7%
> Cn1c(C=O)c(C#Cc2ccccc2)c2ccccc21
    ?, ?
> COc1ccccc1NS(=O)(=O)c1cc(NC(=O)c2cc3ccccc3oc2=O)ccc1C
    i, -12%
> CC1=C(C(=O)NCc2cccc(F)c2)C2(CCCCCC2)OC1=O
    -13%, -3%
> O=c1c2ccccc2nc(-c2ccoc2)n1CCc1ccccc1
    ., -8%
> COc1ccc(/C(C)=N/NC(=O)c2cc(-c3cccnc3)nc3ccccc23)cc1
    -4%, -6%
> O=C(O)c1ccc(/C=N/N2CCN(C3c4ccccc4-c4ccccc43)CC2)cc1
    -11%, -4%
> Cc1ccc(NS(=O)(=O)c2cc(NC(=O)c3cc(=O)[nH]c(=O)[nH]3)ccc2Cl)c(C)c1
    -11%, -2%
> COc1cc(C(=O)COC(=O)Cc2cnc3sccn23)cc(OC)c1OC
    -5%, -8%
> CC(C)N=C(N)N=C(N)Nc1ccc(Cl)cc1
    -6%, -16%
> O=C(COc1ccc(Br)cc1Br)NC1CCS(=O)(=O)C1 (configuration not stated)
    -20%, -9%
> Cc1cc(C)n2nc(-c3sccc3-n3c(C)ccc3C)cc2n1
    ., ?
> Cc1ccc(NC(=O)CN(C)C(=O)COC(=O)CCS(=O)(=O)c2ccc(C)cc2)cc1
    i, -7%
> Cc1ccc(C2=NN(C(=O)COc3ncnc4ccccc34)C(c3ccco3)C2)cc1 (configuration not stated)
    -15%, -16%
> COc1ccc2[nH]c(=O)c(CN(C(=O)c3ccncc3)C(C)(C)C)cc2c1
    ., -11%
> CCOC(=O)c1c(NC(=O)c2nn(CC)cc2Br)c(C#N)cn1-c1ccccc1
    -17%, -27%
> COc1ccc2nc(NC3=NC(c4ccccc4)CC(=O)N3)nc(C)c2c1 (configuration not stated)
    i, -25%
> Cc1ccc(C(=O)CSc2nnc(-c3ccco3)n2C)cc1
    -2%, 1%
> CN(NS(C)(=O)=O)c1ncc(C(F)(F)F)cc1Cl
    ?, -7%
> CCOC(=O)c1sc2nc(CC(=O)OC)nc(N3CCN(c4ccccn4)CC3)c2c1C
    -14%, -13%

Entries of single compounds, quoted from the list.
Cn1c(C=O)c(C#Cc2ccccc2)c2ccccc21 is listed as Vaccinia mCherry = ?; Vaccinia Venus = ?
Cc1ccc(NC(=O)CN(C)C(=O)COC(=O)CCS(=O)(=O)c2ccc(C)cc2)cc1 is listed as Vaccinia mCherry = i; Vaccinia Venus = -7%
CC(C)N=C(N)N=C(N)Nc1ccc(Cl)cc1 is listed as Vaccinia mCherry = -6%; Vaccinia Venus = -16%

A second format for two compounds above:
> CC(C)N=C(N)N=C(N)Nc1ccc(Cl)cc1
  Vaccinia mCherry: -6% | Vaccinia Venus: -16%

> O=c1c2ccccc2nc(-c2ccoc2)n1CCc1ccccc1
  Vaccinia mCherry: . | Vaccinia Venus: -8%

Next section:
Under each structure – Vaccinia mCherry, Vaccinia Venus
> CCn1c(=O)cc(SCC(=O)NCCc2cc(OC)ccc2OC)c2ccccc21
    -13%, -11%
> COc1ccc(CCNC(=O)CSc2nc(N)c3c(C)c(C)oc3n2)cc1OC
    ., -21%
> COC(=O)C(CC(=O)c1ccc(Br)cc1)n1nc(C)cc1C (configuration not stated)
    i, -3%
> COC(=O)c1ccc(CNC(=O)c2cc(COc3cncc(Cl)c3)on2)cc1
    i, -15%
> CCCCn1c(=O)c(CCC(=O)OCC(=O)NC(C)c2ccccc2)nc2ccccc21 (configuration not stated)
    i, -1%
> COc1ccc(/C=C/C2=NC(=C\N(C)C)/C(=O)O2)cc1
    ., -12%
> O=C(NC1CCCCC1)C1CCN(c2nccs2)CC1
    i, -8%
> O=C(c1ccccc1)c1nnc(-c2ccncc2)o1
    ., -15%
> O=C(c1cccnc1)C1CCCN(Cc2ccc3c(c2)CN(C(=O)c2cn4ccccc4n2)CCO3)C1 (configuration not stated)
    -13%, -2%
> Cc1nc(NC(=O)Nc2ccc(Cl)cc2)sc1C
    0%, -9%
> O=C(c1cncs1)N(Cc1cc2cc3c(cc2nc1N1CCOCC1)CCC3)CC1CCCO1 (configuration not stated)
    -7%, -2%
> CC1CCCC(C)N1CCCNC(=O)Cn1ncc2c([nH]c3ccccc32)c1=O (configuration not stated)
    -7%, -6%
> CCOc1ccc(S(=O)(=O)N2CCCC(C(=O)NCc3cccnc3)C2)cc1 (configuration not stated)
    -5%, -23%
> Cc1ccccc1-c1nc(CS(=O)(=O)CC(=O)N2CCN(c3ccccc3)CC2)c(C)o1
    -21%, -18%
> COC(=O)c1cccc(NC(=O)CSc2nnnn2C)c1
    -8%, -7%
> Cc1ccc(N(CC(=O)Nc2ccc(C)c(F)c2)S(=O)(=O)c2c(C)n[nH]c2C)cc1
    -11%, -8%
> C/C(=N\NC(=O)c1csc(C)c1C)c1ccc(C)s1
    -13%, -16%
> CCOc1ccc(CNC(=O)CCCn2c(=O)c3cccn3c3ccccc32)cc1
    -6%, -8%
> Cc1cccc(NC(=O)CSc2nc3c(sc4ccccc43)c(=O)n2CCCC(=O)NC2CCCC2)c1
    -5%, -10%
> Cc1cc(C(=O)N/N=C/C=C/c2ccccc2[N+](=O)[O-])c(C)o1
    -6%, -7%
> CCOc1ccc(NC(=O)NNC(=O)C(C)Oc2ccccc2OC)cc1 (configuration not stated)
    -8%, -9%
> Cc1ccc(C)c(SCC(=O)N(C)CC(=O)Nc2ccc(N3CCOCC3)cc2)c1
    -23%, -3%
> CC1(C)C2CCC1(C)C(OC(=O)C[n+]1ccccc1)C2 (configuration not stated)
    -15%, -13%
> Cc1ccc(NCC(=O)Nc2cccc(S(=O)(=O)N(C)C)c2)c(Cl)c1
    -27%, -12%
> CCOc1cccc(Cc2c[nH]c(=O)[nH]c2=O)c1
    i, -1%
> O=C(Nc1ccccc1Cl)c1cccc(COc2cc(Cl)ccc2Cl)c1
    -1%, -13%
> CCN=C1SC(CC(=O)NC(C)C)C(=O)N1CC (configuration not stated)
    -16%, -12%
> CC1(C)OC(=O)C(=NNc2ccc(C(=O)O)cc2)C(=O)O1
    -1%, -7%
> O=C(c1cc2ccccc2oc1=O)N1CCCCCCC1
    -10%, -12%
> CC(C)OCCCNC(=O)COc1ccc2oc3c(c2c1)CCCC3
    2%, -2%
> CCOc1ccccc1CNS(=O)(=O)c1ccc2[nH]c(=O)ccc2c1
    2%, -1%
> Fc1ccc(-c2nnc(NC3=NCCCCC3)o2)cc1
    ., -26%
> O=[N+]([O-])c1cc(S(=O)(=O)NC2=NCCCCC2)ccc1Cl
    6%, -3%
> Cc1ccc(C2Nc3ccccc3C(=O)N2Cc2ccco2)cc1 (configuration not stated)
    -27%, ?
> COc1ccc(CCNC(=O)c2c(C)nn(-c3ccccc3)c2Cl)cc1OC
    9%, -13%
> Cc1ccc(CCNC(=O)c2ccc3c(c2)N(Cc2cc(C)ccc2C)C(=O)c2ccccc2S3=O)cc1 (configuration not stated)
    -7%, -17%
> C=CCc1cccc2cc(C(=O)N(C)C)c(=O)oc12
    -2%, 47%[activator]
> O=C(O)c1c(-n2cccc2)sc2c1CCCC2
    i, -2%
> Cc1ccc(OCCSCc2nc3ccccc3[nH]2)cc1
    -21%, -20%
> COCc1ccc(CN2CCCCC2C(=O)Nc2ccc(Oc3ccccc3)nc2)o1 (configuration not stated)
    -11%, -24%
> CSc1ccccc1NC(=O)Cn1ccsc1=N
    -16%, -17%
> O=C(c1cn(-c2ccccc2)nc1-c1cccc(Br)c1)N1CCOCC1
    -4%, -13%
> O=C(NCc1ccccc1F)C1CCCN(C(=O)NC2CCCCC2)C1 (configuration not stated)
    -8%, -10%
> Cc1cc(NC(=O)CCc2ccc(C)o2)no1
    ., -1%
> Cc1nnc(SCCn2c(N(C)Cc3ccccc3)nc3c2c(=O)[nH]c(=O)n3C)s1
    i, -25%
> CCC(c1nnnn1C(C)(C)C)N1CCC2(CC1)C(=O)NCN2c1ccccc1 (configuration not stated)
    43%[activator], 12%
> c1ccc(OCCNc2nc(NCC3CC3)nc3cc(-c4ccccc4)sc23)cc1
    ?, ?
> O=c1[nH]c(=O)n([C@H]2C[C@H](O)[C@@H](CO)O2)cc1Br
    -13%, 1%
> Cc1onc(-c2c(F)cccc2Cl)c1C(=O)NCCO
    i, -3%
> CN(C)c1ccc(O)c2c1CC1CC3[C@@H](N(C)C)C(=O)C(C(N)=O)=C(O)[C@]3(O)C(=O)C1=C2O (some centres not stated)
    -4%, -28%
> CCC(CC)C(=O)Nc1ccc(C(=O)Nc2cc(C)on2)cc1
    i, -9%
> c1coc(CNc2ncnc3c2[nH]c2ccccc23)c1
    -21%, ?
> CC(C)C[C@@H]1CN(CCCC[C@H]2CNC(=O)C(=O)N2CCC2CCCCC2)C(=O)C(=O)N1CCC1CCCCC1
    ?, ?
> Cc1ccc2c(c1)cc(CN(Cc1cccnc1)C(=O)c1ccccc1)c1nnnn12
    i, -5%
> FC(F)(F)c1cccc(CNC2c3ccccc3-c3ccccc32)c1
    -14%, -10%
> COc1ccc(CNc2ncnc3c2cnn3-c2ccc(Cl)cc2)cc1
    -12%, 2%
> O=C(CSc1nc2cc(Cl)ccc2s1)c1ccco1
    -7%, 3%
> CNC(=O)C1CCN(C(=O)N2CC(C)Oc3ccc(Cl)cc32)CC1 (configuration not stated)
    -13%, -6%
> COc1ccc2ccc(Oc3ncccn3)cc2c1
    -14%, -11%
> O=C(NCc1ccc(F)cc1)c1c(O)c2cccc3c2n(c1=O)CCC3
    i, -18%

Remaining list, next part.
smiles | Vaccinia mCherry | Vaccinia Venus
CC1CCCCN1S(=O)(=O)c1cccc2cccnc12 (configuration not stated) | 6% | -8%
CC(=O)C1C(c2ccc(Br)cc2)c2c(noc2C)CC1(C)O (configuration not stated) | 8% | 20%
CCOC(=O)c1sc(NC(=O)CCN2CCOCC2)c(C(=O)OCC)c1C | -6% | -6%
O=C(c1ccco1)N1CCN(C(=S)NCc2ccc(F)cc2)CC1 | -13% | -4%
COc1ccccc1CNCC(=O)Nc1cc(S(=O)(=O)N2CCOCC2)ccc1Cl | -9% | -22%
O=C(/C=C/c1ccccc1)NC1CCSC1=O (configuration not stated) | -12% | -5%
OC(CNCc1ccncc1)c1ccccc1 (configuration not stated) | -1% | -8%
CC1(CCc2ccccc2)NC(=O)N(CC(=O)Nc2ccc(S(N)(=O)=O)cc2)C1=O (configuration not stated) | 2% | 0%
Cc1cccc(-n2cc(-c3ccccc3)c3c(N4CCC(C)CC4)ncnc32)c1 | -13% | -13%
Fc1ccc(Oc2nnnn2-c2ccccc2)cc1 | -7% | -10%
CS(=O)(=O)Nn1cnc2ccccc2c1=O | . | -17%
O=C1C2CCN(CC2)C1Cc1ccccc1O (configuration not stated) | . | -5%
Cc1cccc(N(C)S(=O)(=O)c2cc(-c3cnc(C4CC4)o3)ccc2C)c1 | ? | ?
CC1=CC(=C2C(=O)NC(=S)NC2=O)C=C(C(F)(F)F)N1C | -1% | 6%
COCCN(C(=S)Nc1cccc(C)c1C)C(C)c1ccco1 (configuration not stated) | -5% | -7%
O=C(c1ccccc1)c1cccc(NC(=O)c2ccco2)c1 | . | -5%
CC(C)[C@H](NC(=O)c1ccccc1)C(=O)OCc1nc2scc(-c3ccccc3)c2c(=O)[nH]1 | -27% | -25%
COc1ccccc1CNc1ncnc2c1c(-c1ccccc1)cn2-c1cccc(C)c1 | -15% | -20%
CN(C(=O)c1nc(-c2ccccc2)n(-c2ccccc2)n1)C1CCS(=O)(=O)C1 (configuration not stated) | -15% | -2%
Cc1ccc(NC(=O)CS(=O)CC(=O)N2CCN(C3CCCC3)CC2)cc1 (configuration not stated) | -5% | -1%

Copied from the list:
CC(C)[C@H](NC(=O)c1ccccc1)C(=O)OCc1nc2scc(-c3ccccc3)c2c(=O)[nH]1 in Vaccinia mCherry = -27%
CCOC(=O)c1sc(NC(=O)CCN2CCOCC2)c(C(=O)OCC)c1C in Vaccinia mCherry = -6%
CC1(CCc2ccccc2)NC(=O)N(CC(=O)Nc2ccc(S(N)(=O)=O)cc2)C1=O (configuration not stated) in Vaccinia Venus = 0%
O=C(c1ccccc1)c1cccc(NC(=O)c2ccco2)c1 in Vaccinia Venus = -5%
CN(C(=O)c1nc(-c2ccccc2)n(-c2ccccc2)n1)C1CCS(=O)(=O)C1 (configuration not stated) in Vaccinia mCherry = -15%

(next part)
smiles | Vaccinia mCherry | Vaccinia Venus
Nc1ccccc1Nc1cc(-c2ccccc2)nn1-c1cccc(Cl)c1 | -16% | -16%
CCCc1ccc(Oc2cc(NN3CCCCC3)c([N+](=O)[O-])cc2[N+](=O)[O-])cc1 | ? | -20%
Cc1ccc(S(=O)(=O)N2CCN(S(=O)(=O)N3CCOCC3)CC2)cc1 | -7% | 1%
O=C(c1ccc(S(=O)(=O)Nc2ccc(F)cc2)cc1)N1CCN(c2ccccn2)CC1 | -16% | -20%
CC(C)C(C(=O)NC1CCCC1)N(Cc1ccco1)C(=O)CNS(=O)(=O)c1ccccc1 (configuration not stated) | i | 2%
Cc1cs/c(=N/C(=S)Nc2ccccc2)n1C | -14% | -12%
COc1ccc(CN(C)CC2CCCN(CCc3ccc(Cl)cc3)C2)cc1OC (configuration not stated) | -15% | -13%
Cc1ccc(-c2csc(NC(CO)c3nc4ccccc4n3CCOCCO)n2)cc1 (configuration not stated) | ? | ?
CCOC(=O)c1cnc2ccc(C(=O)OC)cc2c1Nc1cccc(C(=O)O)c1 | 6% | 7%
COc1ccc(CC(=O)Nc2nc(-c3ccc(F)c(F)c3)cs2)cc1OC | -6% | 1%
COc1ccc(NC(=O)c2cnc[nH]2)cc1 | 4% | 4%
CN(C(=O)CN1C(=O)CCSc2ccc(S(=O)(=O)N3CCCC3)cc21)c1ccccc1 | -8%[7.34 µM] | -8%[7.34 µM]
C/C(CC(C)C)=N\Nc1ccc(S(N)(=O)=O)cc1[N+](=O)[O-] | -14% | -26%
